SmPrx2 inh – blocks S. mansoni peroxiredoxin 2 enzymatic activity. S. mansoni Prx2 activity coupled to TGR/GSH (TGR is thioredoxin glutathione reductase), NADPH fluorescence loss, qHTS; some inactives read as strong as hits. Potency, µM. 0.07% of 65,000 active; active means full or partial inhibition curve with a strong effect at the top dose; inconclusive means weaker partial or single-point curve; inactive means no accepted curve; also: series up to 57 µM; many of its hits are not listed in these tables
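Prx2 activity was followed as the loss of NADPH fluorescence (ex 365/em 450 nm), read every 30 sec for 8 min after H2O2 start. The enzyme mix (50 nM Prx2, 25 nM TGR, GSH, NADPH; pH 7.4 phosphate buffer) was incubated with compound for 15 min at room temperature first.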
Anthrax LT inh – inhibitors of anthrax lethal toxin internalization; Cells, anthrax lethal toxin internalization, FRET ratio (460/530); Potency, µM (series often up to 40 µM), inactives show at the highest dose activity change, negative = inhibition, most hits filed as inhibitors; AID 912; 0.67% of 70,000 active; active = well fitted falling ratio curve with the 530 nm signal flat; inconclusive = other ratio curves, or a change in one channel alone; inactive = flat curves in the ratio and both channels; the % refers to the ratio; also: % is scaled to controls: 0 for no effect and ±100 for the full control effect; nearly all actives have a fitted effect of over 50% in size; tested in ME-180 cells; beta-lactamase reporter
Numbers without * were called inactive; ? = inconclusive; · = no result given; & = joins results of further samples; [ ] = another dose, or the depositor's remark. Potency is read from the fitted curve at half-maximal effect. An excerpt. The share of hits here may be higher or lower than overall.

Start of the data: the first 4 entries, to show the layout:
SMILES	SmPrx2 inh	Anthrax LT inh
CCC(=O)N1CCc2cc(S(=O)(=O)CCC(=O)NCCc3ccc(OC)c(OC)c3)ccc21	>57	6.7%
CCOC(=O)C(C)Sc1nc2c(cnn2-c2ccc(C)cc2)c(=O)[nH]1 (configuration not stated)	>57	3.9%
COc1ccccc1OCc1nc2c3c(-c4ccccc4)c(-c4ccccc4)oc3ncn2n1	>57	3.7%
CS(=O)(=O)N1CCN(C(=O)c2csc3ccccc23)CC1	>57	?

The list itself (from the top)
SMILES	SmPrx2 inh	Anthrax LT inh
CCC(=O)N1CCc2cc(S(=O)(=O)CCC(=O)NCCc3ccc(OC)c(OC)c3)ccc21	>57	6.7%
CCOC(=O)C(C)Sc1nc2c(cnn2-c2ccc(C)cc2)c(=O)[nH]1 (configuration not stated)	>57	3.9%
COc1ccccc1OCc1nc2c3c(-c4ccccc4)c(-c4ccccc4)oc3ncn2n1	>57	3.7%
CS(=O)(=O)N1CCN(C(=O)c2csc3ccccc23)CC1	>57	?
CCCS(=O)(=O)N1CCN(C(=O)c2cccc(OC)c2)CC1	>57	6.4%
Cc1ccc(NC(=O)CCN2CCc3ccccc3C2)cc1	>57	-16.1%
COc1ccc(CCn2c(N)c(C#N)c3nc4ccccc4nc32)cc1OC	>57	?
CN1CCN(S(=O)(=O)c2cccc(C(=O)Nc3sc4c(c3C(N)=O)CCCC4)c2)CC1	>57	-1.2%
CCCn1nnc(NC(=O)COc2ccccc2Cl)n1	>57	11.3%
OC[C@@H]1O[C@@H](n2cnc3c(N[C@@H]4C[C@@H]5CC[C@H]4C5)ncnc32)[C@@H](O)[C@H]1O	>57	-8.4%
CO[C@@H]1COC(=O)C/C=C\[C@H](C)COC(=O)[C@H](C)NC(=O)C/C=C\[C@H]1C	·	-4.0%[8 µM]
CN(C)c1ccnc2sc3c(=O)n(-c4ccccc4)cnc3c12	>57	1.0%
CC(=O)N1CCN(c2ccc(Oc3nc(-c4ccccc4)nc4ccccc34)cc2)CC1	>57	9.2%
Cc1ccc(NS(=O)(=O)c2ccc(C)c(C(=O)N3CCN(C)CC3)c2)cc1	>57	3.9%
CCOC(=O)CC(NS(=O)(=O)c1ccc(NC(C)=O)cc1)c1ccc(OCC)cc1 (configuration not stated)	>57	-3.6%
O=C(O)c1ccc(Oc2nc3ccccc3s2)cc1	>57	1.4%[8 µM]
CN(C)c1ccc(-c2nnn(CC(=O)Nc3ccccc3N3CCOCC3)n2)cc1	>57	-8.5%
Cn1c(SCC(=O)N2CCOCC2)nc2sc3c(c2c1=O)CCCC3	>57	5.3%
COc1cccc(-c2cc(C(=O)N3CCN(c4ncccn4)CC3)c3ccccc3n2)c1	>57	?
Cc1nnc(SC(C)C(=O)Nc2ccc3c(c2)OCCO3)s1 (configuration not stated)	>57	8.0%
COc1cccc(N2C(=O)CC(N3CCC(c4nc5ccccc5[nH]4)CC3)C2=O)c1 (configuration not stated)	>57	6.9%
CCCC(=O)Nc1ccc(Cl)c(NC(=O)c2ccc(Br)o2)c1	>57	-20.4%
O=C(NCC(=O)N(c1cccnc1)C(C(=O)NC1CCCCC1)c1cccnc1)c1ccco1 (configuration not stated)	>57	1.0%
CCCCN(C)CCNC(=O)c1c[nH]c2ccc(S(=O)(=O)N(CC)CC)cc2c1=O	>57	-1.0%
Cc1cc(NC(=O)CCC(=O)N(c2cccc(F)c2)C(C(=O)NC2CCCC2)c2ccncc2)no1 (configuration not stated)	>57	-8.5%

Entries of single compounds from above. Order of values: SmPrx2 inh, Anthrax LT inh
Results for O=C(O)c1ccc(Oc2nc3ccccc3s2)cc1 : >57, 1.4%[8 µM]
Results for OC[C@@H]1O[C@@H](n2cnc3c(N[C@@H]4C[C@@H]5CC[C@H]4C5)ncnc32)[C@@H](O)[C@H]1O : >57, -8.4%

(cont.)
SMILES	SmPrx2 inh	Anthrax LT inh
Cc1cccc(-c2nnc3sc(-c4ccccc4)nn23)c1	>57	8.9%
N=c1ccn2c(n1)O[C@@H]1[C@@H](O)[C@H](CO)O[C@H]12	>57	-0.3%
C=CCn1c(Cc2csc(N)n2)nnc1SCC(=O)OCC	>57	1.8%
COc1ccc(CCN(C)C(=O)CSc2nccn2C)cc1OC	>57	-9.9%
Cc1oc(-c2cccs2)nc1CS(=O)CC(=O)NCCc1ccccc1 (configuration not stated)	>57	-15.2%
O=C(Nc1cccs1)NC1CCCC1	>57	?
Cc1ccccc1NC(=O)Cn1cnc2c(oc3ccccc32)c1=O	>57	0.4%
C[C@@H]1CCN=C(N)S1	>57&>57	-29.3%&-5.7%
COC(=O)c1ccccc1NC(=O)Cn1c(-c2nonc2N)nc2ccccc21	>57	?
Cc1ccc(-c2nc(C#N)c(NCCc3ccccn3)o2)cc1	>57	-4.5%
c1ccc(CCc2nn3c(C4COc5ccccc5O4)nnc3s2)cc1 (configuration not stated)	>57	·
Cn1c(SCC(=O)N2CCCc3ccccc32)nnc1-c1ccco1	>57	2.3%
CC(C)n1c(NCc2nc3ccccc3n2C)nc2ccccc21	>57	·
NS(=O)(=O)c1ccc(CCNC(=O)CNC(=O)C2CCCCC2)cc1	>57	-0.6%
Cc1ccccc1CNS(=O)(=O)c1ccc2c(c1)OCCO2	>57	2.2%
Cc1cc(NC(=O)CSc2nnc(-c3ccco3)n2CC2CCCO2)no1 (configuration not stated)	>57	4.0%
Cn1c(N2CCOCC2)nc(-c2ccccc2)c1-c1ccccc1	>57	-13.3%
O=C(Cn1nc(Cl)nc1Cl)c1ccc2c(c1)OCCO2	?	-10.6%
O=C(NCc1nnc(SCC(=O)N2CCC(Cc3ccccc3)CC2)o1)c1ccccc1F	>57	-28.9%
Cc1cc(OCC(O)CN2CCN(C)CC2)ccc1C(C)C (configuration not stated)	>57	-4.7%
CCOC(=O)CNc1ccc2c(c1)OCO2	>57	-0.6%
COC(=O)c1ccccc1NC(=O)Cn1cnc2c(cnn2-c2ccccc2)c1=O	>57	2.1%
CCCN1C(=O)c2cc(C(=O)Nc3ccccc3CC)ccc2C1O (configuration not stated)	>57	-11.3%
Cc1ccc(-c2nc(C3CCN(S(=O)(=O)c4ccc(C(F)(F)F)cc4)CC3)no2)cc1	>57	1.4%
O=c1[nH]c2ccc(S(=O)(=O)N3CCCCC3)cc2[nH]1	>57	-0.3%

Next section
SMILES	SmPrx2 inh	Anthrax LT inh
O=S(=O)(c1ccc2c(c1)OCCO2)N1CCC(c2nc3ccccc3s2)CC1	>57	-7.7%
CN(C)c1ccc(NC(=O)c2ccc(COc3cccc(Cl)c3)o2)cc1	>57	10µM*
O=C(NC1CCCC1)C(c1ccc(N2CCOCC2)cc1)N(Cc1ccco1)C(=O)c1ccco1 (configuration not stated)	>57	-7.6%
CC1Cc2nc(SCC(=O)Nc3ccc(F)cc3F)n(C)c(=O)c2S1 (configuration not stated)	>57	5.1%
O=C(O)c1nn(-c2ccc(Cl)cc2)c2c1C(=O)c1ccccc1C2=O	>57	-7.9%[8 µM]
c1ccc(-n2cnnc2SCc2nc3ccccc3s2)cc1	>57	7.0%
COc1ccc(N=C2C(=O)Nc3c(C)cccc32)cc1	>57	-8.9%
CC(C)(C)NC(=O)COC(=O)c1snc(C(=O)NC2CCCCC2)c1N	>57	-3.5%
CCN1CCN(C(c2ccccc2OC)c2nnnn2C2CCCCC2)CC1 (configuration not stated)	>57	?
O=C(CCn1c(=O)[nH]c2ccsc2c1=O)N1CCc2ccccc2C1	>57	-1.7%
O=C(Cn1nc(-c2cccc(Cl)c2)ccc1=O)Nc1cccnc1	>57	-8.9%
O=C(CN(c1ccc2c(c1)OCCO2)S(=O)(=O)c1ccccc1)NCC1CCCO1 (configuration not stated)	>57	7.9%
COC(=O)c1ccc(-c2n[nH]c(=O)c3ccccc23)cc1	>57	?
CCOC(=O)C1=C(CN2CCC(C)CC2)NC(=O)NC1c1ccc(Cl)cc1 (configuration not stated)	>57	·
CC1=C(Sc2nc3ccccc3[nH]2)C(=O)NC(C)(C)C1	>57	?
Nc1cccc(-c2nc3ccccc3[nH]2)c1	·	21.3%
COc1cc(Br)cc2cc(C(=O)N3CCCCC3C)c(=O)oc12 (configuration not stated)	>57	-25.5%
COC(=O)N1[C@H](C)C=C[C@]1(Cc1ccccc1)C(=O)NCCCNc1ncc(C(F)(F)F)cc1Cl	·	?
COC(=O)c1ccc(Cn2cnc3c(cnn3-c3ccc(C)c(C)c3)c2=O)o1	>57	?
O=c1[nH]c(NCCO)nc2c1C1(CCCCC1)Cc1ccccc1-2	>57	-18.3%
COc1ccc(-c2noc(CCCC(=O)O)n2)cc1	>57	-1.8%
COc1ccc(NC(=O)C2CCCCN2CC(=O)OCc2ccccc2)cc1OC (configuration not stated)	>57	-2.5%
Cc1ccc2cc(CN(Cc3cccs3)Cc3nnnn3CC3CCCO3)c(=O)[nH]c2c1C (configuration not stated)	>57	2.8%
Cc1cc(N2C(=O)C3CCCN3C2c2cccc(Cl)c2)no1 (configuration not stated)	>57	-9.6%
Cc1cccc(OCCCCc2c(C)n[nH]c2C)c1	>57	5.4%

Other structures
SMILES	SmPrx2 inh	Anthrax LT inh
CCOC(=O)c1[nH]c2ccc(OC)cc2c1N=CN(C)C	>57	-1.8%
CCN(CC)CCCn1c(=S)[nH]c2cc(Cl)ccc2c1=O	>57	-3.8%
NC(=O)CSc1nnc(-c2ccc(S(=O)(=O)N3CCOCC3)cc2)n1Cc1ccccc1	>57	-5.4%
CC(C)(C)n1nc2c(c1NC(=O)c1ccc(S(=O)(=O)N3CCCC3)cc1)CS(=O)C2 (configuration not stated)	>57	-10.4%
O/C(=C\Sc1nnc(Cc2ccccc2)o1)c1ccc(Br)cc1	>57	-27.7%
Cc1[nH]c(C)c(CN(C)C)c1CN(C)C	>57	-1.9%[8 µM]
Cc1ccc(CN2C(=O)CCC2C(=O)NCCCN2CCCCC2C)cc1 (configuration not stated)	>57	-2.2%
O=C(CN1CCN(C(=O)N2CCCCC2)CC1)Nc1ccc(F)cc1	>57	5.5%
NS(=O)(=O)c1ccc(-n2nncc2C23CC4CC(CC(C4)C2)C3)cc1	>57	?
CCCCN(C(=O)c1ccc(Cl)cc1)C1CC2CCC(C1)N2C (configuration not stated)	>57	?
CN(C)CCN=Cc1c(O)n(-c2cccc(C(F)(F)F)c2)c(=O)[nH]c1=O	>57	5.6%
CCC/C(O)=C1\C(=O)CCCC1=NC(C)C(=O)O (configuration not stated)	>57	·
CC(=O)N1CCC2(CCN(Cc3nccs3)CC2)CC1	>57	13.7%
CP(=O)(O)CCCN	>57&>57&>57	-12.5%&-7.6%&-9.8%
C(=C\c1ccccc1)/CN1CCN(c2ncnc3c2oc2ccccc23)CC1	>57	2.0%
c1ccc(CNc2ccnc(-c3ccoc3)n2)cc1	>57	?
CN(C)C(=O)N1CCC(C(=O)NCc2ccccc2Cl)CC1	>57	-7.3%
CC1CC(C)CN(C(=O)CSCC(=O)Nc2nc(-c3cccs3)cs2)C1 (configuration not stated)	>57	?
Cc1csc(SCC(=O)NC(=O)NCc2ccccc2)n1	>57	5.8%
CN(C)S(=O)(=O)NCc1ccc2c(c1)OCO2	>57	5.9%
O=C(CN1C2=NCCN2c2ccccc21)c1ccc(Br)cc1	>57	-11.7%
CN(C)c1ccc(C(=C2C=CC(=[N+](C)C)C=C2)c2c(O)c(S(=O)(=O)O)cc3cc(S(=O)(=O)O)ccc23)cc1	>57	-7.7%[8 µM]
COc1ccc(C2CC(c3cccc(OC)c3OC)n3nnnc3N2)cc1 (configuration not stated)	>57	17.0%
COC(=O)C1(S(=O)(=O)c2ccc(C)cc2)CCOCC1	>57	9.4%
Cc1cc(C(=O)NC(C)c2ccncc2)cs1 (configuration not stated)	·	6.0%

Ordered by length of the SMILES (descending): some entries from above
SMILES	SmPrx2 inh	Anthrax LT inh
CN(C)c1ccc(C(=C2C=CC(=[N+](C)C)C=C2)c2c(O)c(S(=O)(=O)O)cc3cc(S(=O)(=O)O)ccc23)cc1	>57	-7.7%[8 µM]
CN(C)CCN=Cc1c(O)n(-c2cccc(C(F)(F)F)c2)c(=O)[nH]c1=O	>57	5.6%
CC1CC(C)CN(C(=O)CSCC(=O)Nc2nc(-c3cccs3)cs2)C1 (configuration not stated)	>57	?

(continued)
SMILES	SmPrx2 inh	Anthrax LT inh
CCc1nnc(NC(=O)CC(=O)Nc2ccccc2C(=O)O)s1	>57	3.8%
CCCC(CCC)C(=O)O	>57	1.9%&-8.5%
CC(C)(O)C(=O)Nc1ccc([N+](=O)[O-])c(C(F)(F)F)c1	·	-9.0%
O=C(CSc1nnc(CNc2ccc(F)cc2)o1)N1CCCc2ccccc21	>57	?
CCOC(=O)c1c(-c2ccccc2)oc2ccc(O)c(CN3CCOCC3)c12	>57	?
O=[n+]1c2c(n([O-])c3c1CCC3)CCCC2	>57	·
CCCn1c(=O)c2[nH]c(-c3ccc(OCC(=O)Nc4ccc(C#N)cc4)cc3)nc2n(CCC)c1=O	>57	-7.7%
CC(C(=O)NC1CCCC1)N(C(=O)c1snc(C(N)=O)c1N)c1ccc2c(c1)OCCO2 (configuration not stated)	>57	-12.9%
CCC(C)NC(=O)c1c(N)n(CCCOC)c2nc3ccccc3nc12 (configuration not stated)	>57	?
Cc1ccc(S(=O)(=O)Nc2nc3ccc(S(=O)(=O)N4CCCC4)cc3s2)cc1	>57	-17.5%
Cn1cccc1Cc1nnc(SCC(=O)Nc2ccc3c(c2)OCCO3)n1-c1ccc(F)cc1	>57	?
Cc1cc(NC(=O)CCCSc2nc(-c3ccco3)cc(C(F)(F)F)n2)no1	>57	?

Source: PubChem
